# From PubChem BioAssay
# NPYLR7 ag: agonists of mosquito NPYLR7 receptor, primary screen, cell-based, Aedes aegypti, calcium fluorescence, mosquito biting behavior; AID 1259423, 2018; Aedes aegypti neuropeptide Y-like receptor 7 (NPYLR7); HEK293T NPYLR7/Galpha15, GCaMP6s calcium fluorescence; activation, % at 10 µM; hit rate 0.15% among 270,000; in the data active = activation above about 40%;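 also: 0% = vehicle and 100% = reference agonist at the receptor; some compounds past the cut are filed as inactive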
# NPYLR7 ag max-min: further read-out of NPYLR7 ag, marked with its call; activation, %; measured here: Max-Min RFU normalised activation; some inactives read as strong as hits;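 span of the calcium signal over five minutes; 0% = vehicle and 100% = native peptide agonist; compound fluorescence can raise it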
# An asterisk follows results filed as active. Not all compounds are listed; the hit share may differ from the screen's.
SMILES | NPYLR7 ag max-min | NPYLR7 ag
Cn1nnc(NC(=O)COc2ccc(C3CCCCC3)cc2)n1 | 0 | 0
O=C(c1cn[nH]n1)N1CCn2cccc2C1c1ccccn1 (stereo not drawn) | -2 | -1
O=C(Cc1ccc(F)cc1)NCCSc1ncc(-c2ccccc2)[nH]1 | 8 | 9
CC(NC(=O)c1cc(NC(=O)c2ccc(Br)cc2)ccc1N1CCCCC1)c1ccccc1 (stereo not drawn) | 19 | 18
Cc1ccccc1CN1CCN(Cc2cccc3nonc23)CC1 | 16 | 22
Fc1ccc(Oc2cc(N3CCN(Cc4ccccc4)CC3)ncn2)cc1Cl | 0 | -6
Cc1ccc(NC(=O)CC(=O)N(C)C(C)c2nccs2)cc1 (stereo not drawn) | -8 | -1
CC(C)(C)OC(=O)N1CCc2ccccc2C1C(=O)N1CCCC(C(=O)NCC2CC2)C1 (stereo not drawn) | 2 | 3
COc1cc(OC)c(C2=NOC(C(=O)Nc3ccn(Cc4ccccc4C)n3)C2)cc1Cl (stereo not drawn) | 2 | 1
O=C(NCc1ccc(F)cc1)C(=O)NCC1CCN(c2ncccn2)CC1 | -3 | -3
COc1ccccc1C1CN(CCNC(=O)c2ccc(N3CCOCC3)cc2)Cc2ccccc2O1 (stereo not drawn) | -2 | 2
CCCCOc1ccccc1/C=N\Nc1nnc(C)c(=O)[nH]1 | 0 | 0
COCC(=O)N1CCC(Oc2ccccc2C(=O)N2CCN(c3ccccc3)CC2)CC1 | 1 | 2
COCC(=O)N[C@H]1CCN2C(=O)[C@@H]3C[C@@H](OCC4CC4)CN3C(=O)[C@H]12 | -13 | -7
CN(C)C(=O)NS(=O)(=O)c1ccc(Cl)cc1 | -3 | 0
CS(=O)(=O)Cc1nc(-c2cc3c(cc2F)NC(=O)CC3)cs1 | -23 | -20
CCc1ccccc1NC(=O)N1CCCC1C(=O)Nc1nnc(-c2cccc(Cl)c2)s1 (stereo not drawn) | 19 | 19
COc1cccc(C2C3=C(CCCC3=O)N(N(C)C)C(=N)C2C#N)c1 (stereo not drawn) | -3 | -2
COc1ccc(C2Nn3c(nnc3C3CC3)SC2C(=O)c2ccc(F)cc2)cc1 (stereo not drawn) | 1 | 4
CN(CCOc1ccccc1F)C(=O)/C=C/c1ccccc1C#N | -2 | 4
CC(c1ccc(-c2cccc(-n3cnnc3)c2)cc1)N1CCOCC1 (stereo not drawn) | -8 | 0
Cc1nc2ccc(F)cc2n1C1CCN(C(=O)CCc2cccs2)CC1 | 1 | -12
Cc1csc(C(C#N)C(=O)CSc2ncnc3sc4c(c23)CCC4)n1 (stereo not drawn) | 4 | 5
Cc1c(C(=O)NCc2cccc(Cl)c2)sc(=O)n1Cc1ccccc1F | 7 | 12
Cc1c(CN(C)Cc2nc(C(C)C)cs2)cnn1C | 19 | 29
C=c1ncccc1=C1N=C(N(C)C)N=C(N)N1 | 16 | 8
Cc1cc(=O)nc2sc(N3CCC(C(=O)O)CC3)nn12 | -1 | 2
O=C(Nc1cccc2c1OCCO2)C1=NOC(c2ccccc2)C1 (stereo not drawn) | -2 | 0
O=C(Cn1nnc2ccccc21)OCC(=O)N1CCCCC1 | 7 | 4
CC1(C(=O)NS(=O)(=O)c2ccc3c(c2)CCO3)CCN1C(=O)c1ccc(C2CCCCC2)cc1 (stereo not drawn) | -2 | -2
CC(C)NC(=O)NCc1ccc(NS(=O)(=O)c2ccc3c(c2)CN(C(=O)C(F)(F)F)CC3)cc1 | -25 | -16
CCc1ccc(C(C)NCC(=O)Nc2cccc(C(C)=O)c2)cc1 (stereo not drawn) | 3 | 6
Cc1cc2cc(CNC(=O)CCC(=O)O)ccc2n1C | 7 | 10
COCc1cc(C)nc(N/N=C\c2ccc(-c3cccc(Cl)c3Cl)o2)c1C#N | 6 | -1
Cc1ccc(NC(=O)Nc2ccc(-c3ccc(=O)n(C)n3)cc2)cc1 | 7 | 13
CCS(=O)(=O)c1ncc(CN2CCN(Cc3cccc(OC)c3)C(=O)C2)n1CCOC | 1 | 4
COc1ccc(OC)c(S(=O)(=O)NC(=O)C2(C)CCN2C(=O)c2ccccc2)c1 (stereo not drawn) | -2 | 0
Cn1cnnc1CNC(=O)COc1ccc(C(C)(C)C)cc1C(C)(C)C | 0 | 1
CC(C)=CC(=O)NCc1cccc(-c2ncc(-c3ccccc3)[nH]2)c1 | 5 | 10
CN1CCN(Cc2ccccc2Oc2ccc(C(N)=O)cn2)CC1 | 2 | 1
CCCC(C(=O)O)N1C(=O)/C(=C/c2ccc(Cl)cc2Cl)SC1=S (stereo not drawn) | -9 | -5
CCn1ccc2c(OCC(=O)c3ccccc3)cccc2c1=O | 17 | -1
Cc1ccc(Nc2nc(N(C)CCO)nc3c2cnn3-c2ccccc2)cc1C | -5 | -2
Cn1ccnc1SCc1cc(=O)c(OC(=O)c2cccc(F)c2)co1 | 14 | 31
CC(=O)c1cc(CC(=O)N2CCCC(Nc3ccccc3)C2)cs1 (stereo not drawn) | -4 | -1
CCN(CCn1cccn1)C(=O)c1cnc(C)nc1 | 16 | 23
COCCN(Cc1c(-c2ccccc2)noc1N1CCSCC1)C(=O)C1CC1 | 14 | 16
O=C(CC1C=CS(=O)(=O)C1)OCc1ccc(C(=O)Nc2ccccc2)cc1 (stereo not drawn) | 2 | 9
COc1c(C)cnc(COc2cccc(-n3cncn3)c2)c1C | 2 | 3
COc1cn(CC(=O)Nc2cc(C)cc(C)c2)c(CSc2nnnn2C)cc1=O | -10 | -4
CCN(CC(=O)NCc1cccs1)C(=O)CC1C=CCC1 (stereo not drawn) | -1 | 0
CCS(=O)(=O)N1CCN(C(=O)c2ccc3nc(C)c(N(C)C(=O)Nc4ccc(C(C)=O)cc4)n3c2)CC1 | 11 | 11
CNc1nc(Nc2ccc(C)cc2)c2nccnc2n1 | 10 | 4
CN(CCCOc1ccccc1Cl)C(=O)C1(N)CC1 | 2 | 0
Cc1cc(C)c(NC(=O)CSc2nc(=O)n(Cc3ccccn3)c3c2CCC3)c(C)c1 | -3 | -1
CN1CCN(Cc2ccc(C#CC(C)(C)O)s2)CC1C(=O)O (stereo not drawn) | -1 | 1
COc1cccc(CN2CC(C(=O)N3CC=C(c4ccccc4)CC3)CCC2=O)c1 (stereo not drawn) | 3 | 2
O=C1SCCN1CCC(=O)N1CCCc2c(Cl)ccc(F)c21 | -3 | -3
COc1ccc(NC(=O)CCN(Cc2ccccc2)c2nc(-c3cccc(Br)c3)nc3ccccc23)cc1 | 11 | 11
O=C(O)CCC12CC3CC(CC(Cl)(C3)C1)C2 | 1 | 5

# Carrying on:
SMILES | NPYLR7 ag max-min | NPYLR7 ag
COc1cccc(C(=O)N2CCN(C(C(=O)NCCc3ccccc3)C3CCCC3)CC2)c1 (stereo not drawn) | -3 | -4
Cc1n[nH]c(C)c1CC(=O)N1CC[C@@](C)(O)[C@@H](Cc2ccccc2)C1 | -6 | -5
CCc1c(C)nn(CC(=O)N2CCOC(C(F)(F)F)C2)c1C (stereo not drawn) | -8 | -6
CC(NCC12CC3CC(CC(C3)C1)C2)C(=O)N1CC(=O)Nc2ccccc21 (stereo not drawn) | 0 | -1
Cc1ccc(NC2CCCN(C(=O)c3scc4c3OCCO4)C2)cc1C (stereo not drawn) | 7 | 17
CCCCSc1nc2c(c(=O)[nH]1)C(c1ccc(Cl)cc1)C(C(=O)OCC)C(C)=N2 (stereo not drawn) | -7 | -3
O=S(=O)(c1cccs1)N1CCCC1c1ccccc1 (stereo not drawn) | -6 | -5
Cc1cccc(CC(=O)N2CCC(N3CCC(C(=O)N4CCOCC4)CC3)CC2)c1 | 13 | 24
COC(C)(C)Cn1ccnc1-c1ccc(Oc2ncccn2)cc1 | -3 | 0
COc1ccc(CN(CC(O)COc2ccc(OC)cc2)CC2CC2)cc1 (stereo not drawn) | 3 | -5
Cc1ccc(C=NNC(=S)NCC2CCCO2)s1 (stereo not drawn) | -8 | -9
O=S(=O)(c1ccc(Sc2ccccc2)nc1)N1CCCC1 | 4 | 3
Oc1c(Br)cc(Br)cc1C=NC1CC1 | 11 | 9
COc1ccc(-c2cc3ccc(O)c(CN4CC5CC(C4)c4cccc(=O)n4C5)c3oc2=O)cc1 (stereo not drawn) | 11 | 8
CS(=O)(=O)Nc1cccc(F)c1 | 2 | 4
Cc1ccc(S(=O)(=O)N2CCC3(CC2)OCCO3)s1 | -4 | 0
CCc1ccc(NC(=O)CN2CN(c3ccccc3)C3(CCN(C(=O)c4ccc([N+](=O)[O-])cc4)CC3)C2=O)cc1 | 24 | 24
COCCCNCc1c(C)nn(-c2cccc(F)c2)c1N1CCN(C)CC1 | -2 | 4
CCOC(=O)C(=O)Nc1sc(-c2ccccc2)cc1C(=O)OCC | 4 | 13
CCN(Cc1nc(COC)no1)C(=O)c1ccc2ccccc2n1 | 3 | 0
COc1cc(OC)cc(C(=O)Nc2cccc(C3SCC(=O)N3c3cccc(F)c3C)c2)c1 (stereo not drawn) | -13 | -14
COCC(c1ccccn1)N(C)C(=O)c1nc2ccccc2[nH]1 (stereo not drawn) | -3 | -4
C=CCNC(=O)COc1ccc2ccccc2c1 | 11 | 13
CCOC(=O)c1nn(-c2ccccc2)c(=O)cc1OCC(=O)NCc1ccccc1 | 2 | 5
O=C(c1ccc(-n2cccn2)cc1)N1CCCC(Nc2ccc3c(c2)OCCO3)C1 (stereo not drawn) | 8 | 19
COc1ccc2oc(=O)c(-c3nnc(Nc4cc(C)cc(C)c4)s3)cc2c1 | -11 | -7
CC1(C)C2(C(=O)N3CCN(c4nccc(-c5ccc6c(c5)OCO6)n4)CC3)CC[C@@]1(C)C(=O)O2 | 3 | -1
CCOc1c[nH]c(C(=O)Nc2ccc(F)c(F)c2)cc1=O | 1 | 2
CC(C)CNC(=O)C(NC(=O)c1ccc(F)cc1)C1CCN(C(=O)c2ccc(C(F)(F)F)cc2)CC1 (stereo not drawn) | -5 | -7
O=C(Nc1ccc(SCC(=O)N2CCCCC2)nn1)c1cccc(F)c1 | -4 | -2
CCOC(=O)C1=C(C)N=c2s/c(=C/c3ccc(N(C)C)cc3)c(=O)n2C1c1ccc(C)cc1 (stereo not drawn) | 24 | 18
Cc1ccc(S(=O)(=O)NCCN(C)Cc2ccno2)cc1 | 12 | 18
CN(Cc1ccccc1)c1nc2c(c(=O)[nH]c(=O)n2C)n1CCSc1nc2ccccc2[nH]1 | 9 | 3
CCOC(=O)c1nc2ccccc2nc1N1CCN(C(=O)C(C)C)CC1 | 2 | 11
CCN(CC)Cn1c(O)c(N=NC(=O)c2ccc(C)cc2)c2ccccc21 | -13 | -8
C/C(=N/Nc1nc(N2CCOCC2)nc(N2CCOCC2)n1)c1ccc(Cl)cc1 | -13 | -6
Cc1cc2c(cc1C)C(=O)C(N1CCOCC1)=C(c1ccccc1)C2=O | 5 | -3
COc1cc2c(cc1OC)CN(S(=O)(=O)c1ccc(OC)c(N3CCN(S(=O)(=O)c4cccc(F)c4)CC3)c1)CC2 | 6 | 20
COc1cc(COc2ccc(NC(C)=O)cc2)c(OC)cc1Br | 18 | 0
O=C(C1Cc2ccccc2O1)N1CC(c2ccncc2)C1 (stereo not drawn) | 13 | 1
C=C(C)CNC(=O)CCc1nnc(Cc2cc(OC)ccc2OC)o1 | -8 | -7
CC(=O)N1CCN(C(=O)c2cc(C)nc3c2c(C)nn3C)CC1 | -12 | -11
O=C(c1cn(CCN2CCCCC2)nn1)N1CCCN(Cc2cccs2)CC1 | 2 | 17
CCc1ccc(-c2nc(C(=O)NNC(=O)N3CCN(CC(=O)N(CC)CC)CC3)cs2)cc1 | 16 | 14
COc1cc(CN)ccc1OC(C)(C)C | 0 | 4
O=C(CCc1ccc2c(c1)OCO2)N1CCCC(Nc2ccc3c(c2)OCCO3)C1 (stereo not drawn) | 8 | 7
O=C(CSc1nnc2ccc(-c3ccc(Br)cc3)nn12)NCC1CCCO1 (stereo not drawn) | -12 | -14
CC(=O)NC(C)C(=O)Nc1cccc(Sc2ccccc2)c1 (stereo not drawn) | -7 | -5
CCOC(=O)N1CCC(NC(=O)c2cccnc2Oc2cccc([N+](=O)[O-])c2)CC1 | -4 | 0
O=C(O)[C@H]1C[C@@H](O)CCN1Cc1cn[nH]c1-c1ccc(Cl)cc1 | 9 | 13
O=C1CN(C(=O)c2ccc(F)c(Cl)c2)CC(OCc2ccccn2)CN1Cc1ccccc1 (stereo not drawn) | -3 | -1
Cc1ccccc1/C=C(/C#N)C(=O)N1CCN(C)CC1 | 1 | 4
O=S1(=O)CCC(NS(=O)(=O)c2ccc(F)cc2)C1 (stereo not drawn) | 12 | 4
Cc1cc(NS(=O)(=O)c2cc(Cl)c(N)c(Cl)c2)ccc1N(C)C | 5 | 7
Cc1nc(SCc2ccccc2)[nH]c(=O)c1CC(=O)NCCc1ccc(S(N)(=O)=O)cc1 | -16 | -9
CCCN(Cc1c(CC)nn(-c2ccc(F)cc2)c1N1CCN(C(C)C)CC1)S(=O)(=O)c1ccc(F)cc1 | 19 | 6

# Ordered by number of heavy atoms (smallest number first): part of the list above.
SMILES | NPYLR7 ag max-min | NPYLR7 ag
COc1cc(CN)ccc1OC(C)(C)C | 0 | 4
Cc1ccccc1/C=C(/C#N)C(=O)N1CCN(C)CC1 | 1 | 4
O=C(C1Cc2ccccc2O1)N1CC(c2ccncc2)C1 (stereo not drawn) | 13 | 1
Cc1cc(NS(=O)(=O)c2cc(Cl)c(N)c(Cl)c2)ccc1N(C)C | 5 | 7
C/C(=N/Nc1nc(N2CCOCC2)nc(N2CCOCC2)n1)c1ccc(Cl)cc1 | -13 | -6
CCOC(=O)N1CCC(NC(=O)c2cccnc2Oc2cccc([N+](=O)[O-])c2)CC1 | -4 | 0
CCCN(Cc1c(CC)nn(-c2ccc(F)cc2)c1N1CCN(C(C)C)CC1)S(=O)(=O)c1ccc(F)cc1 | 19 | 6
